KCNQ2 enhance: enhances the rat KCNQ2 potassium channel | B-score at 10 µM | CHO-K1 KCNQ2, FluxOR thallium flux fluorescence; active compounds read high | O88943 | AID 2239 | hit rate 0.54% among 310,000;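 active means fluorescence ratio B-score at least 3 SD of library B-scores, with initial fluorescence B-score within 3 SD, cut at about 5.3 in these data; same plate scores as AID 2156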;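 further: B-score of peak minus minimum over baseline fluorescence ratio after K+ and Tl+ stimulus; positive B-score means potentiation of KCNQ2 with more thallium influx and brighter signal; only the inactives scoring about 0 or higher are listed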
Target sequence (O88943 whole entry, looked up): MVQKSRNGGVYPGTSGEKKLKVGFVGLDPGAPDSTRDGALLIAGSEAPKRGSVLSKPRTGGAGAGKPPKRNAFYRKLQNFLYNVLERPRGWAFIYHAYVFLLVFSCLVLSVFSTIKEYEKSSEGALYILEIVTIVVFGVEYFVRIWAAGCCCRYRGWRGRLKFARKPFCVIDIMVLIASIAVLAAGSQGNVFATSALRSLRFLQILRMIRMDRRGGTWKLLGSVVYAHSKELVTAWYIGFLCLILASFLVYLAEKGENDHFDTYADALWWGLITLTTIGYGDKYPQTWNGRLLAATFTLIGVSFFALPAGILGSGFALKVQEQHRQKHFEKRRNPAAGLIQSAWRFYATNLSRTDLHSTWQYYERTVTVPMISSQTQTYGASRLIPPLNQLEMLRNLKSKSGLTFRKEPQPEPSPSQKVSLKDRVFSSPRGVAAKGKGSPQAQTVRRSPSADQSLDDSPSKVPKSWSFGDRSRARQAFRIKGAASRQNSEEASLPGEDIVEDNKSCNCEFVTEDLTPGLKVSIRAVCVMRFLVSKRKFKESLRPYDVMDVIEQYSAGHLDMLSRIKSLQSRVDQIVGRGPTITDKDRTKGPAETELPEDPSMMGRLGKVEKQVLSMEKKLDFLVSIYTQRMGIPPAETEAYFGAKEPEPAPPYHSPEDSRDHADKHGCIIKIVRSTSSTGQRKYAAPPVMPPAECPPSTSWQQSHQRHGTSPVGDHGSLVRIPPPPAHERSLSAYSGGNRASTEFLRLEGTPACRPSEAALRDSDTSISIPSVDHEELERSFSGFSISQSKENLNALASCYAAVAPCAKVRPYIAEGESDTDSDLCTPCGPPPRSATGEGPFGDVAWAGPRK
KCNQ2 enhance baseline: recorded beside KCNQ2 enhance, whose call it bears; B-score; compound at 10 µM; measured here: initial fluorescence intensity artifact check;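 brightness before thallium and not channel activity; 0 = typical well and far values either way flag optical interference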
* = called active by the depositor. An excerpt; count on the stated rates, not on these rows.

SMILES	KCNQ2 enhance	KCNQ2 enhance baseline
Cc1ccc(C(Sc2ccccc2)C(Cn2cncn2)C(=O)c2ccccc2)cc1 (stereo not drawn)	0.65	-2.3
O=C(Nc1nnc(CCOCCOCCc2nnc(NC(=O)c3ccco3)s2)s1)c1ccco1	0.07	0.12
O=C1C2CC(O)CN2C(=S)N1Cc1ccccc1 (stereo not drawn)	0.36	-1.8
N#CCCn1cc(C(N)=O)c(-c2cccs2)n1	1.3	0.47
O=C(c1ccc(NC2=NC3CS(=O)(=O)CC3S2)cc1)N1CCN(c2ccc(F)cc2)CC1 (stereo not drawn)	0.42	0.89
C/C(=N/Nc1ccccc1[N+](=O)[O-])c1ccc([N+](=O)[O-])cc1	2.7	-1.1
Cc1ccc(NS(=O)(=O)c2cccc(C(=O)N/N=C/c3ccc4c(c3)OCCO4)c2)c(C)c1	1.5	0.36
C/C(=N\NC(=O)COc1ccc(C)cc1[N+](=O)[O-])c1cccs1	0.54	-0.35
CC(C)Oc1ccc(CC2CCC(=O)N(C)C2=O)cc1 (stereo not drawn)	0.39	-0.57
NC(=O)c1nsc(C(=O)N(c2cccc(F)c2)C(C(=O)NCC2CCCO2)c2c[nH]c3ccccc23)c1N (stereo not drawn)	1.4	0.36
O=C(COc1ccc(Br)cc1)Nc1ccncc1	1.9	-0.05
S=C(NCCc1ccccn1)Nc1ccccc1Cl	1.1	-1.1
Cc1ccc(C(=O)NCc2ccccn2)c(Cl)c1	1.2	-0.78
O=C(c1n[nH]c2c1CCCC2)n1ccnc1	0.66	-0.48
COc1ccc(C)cc1S(=O)(=O)N1CCN(C(=O)c2ncoc2-c2ccccc2F)CC1	0.33	-1.4
CC(C)C(=O)NCc1cc(-c2ccc(Cl)cc2)no1	1.6	0.51
Cc1c(NC(=O)c2ccc(N(Cc3ccccc3)S(C)(=O)=O)cc2)c(=O)n(-c2ccccc2)n1C	0.08	-0.37
COC(=O)c1ccc(NC(=O)CSc2nc(=O)cc(N)n2-c2ccccc2)cc1	0.02	-0.85
COc1ccc(CCNCc2csc3nc4ccccc4n23)cc1OC	1.4	0.68
O=C(N/N=C/c1ccc([N+](=O)[O-])o1)C(=O)Nc1ccc(C(=O)O)cc1	0.05	-1.6

5 entries from above, comma-delimited.
smiles,KCNQ2 enhance,KCNQ2 enhance baseline
Cc1ccc(C(=O)NCc2ccccn2)c(Cl)c1,1.2,-0.78
CC(C)Oc1ccc(CC2CCC(=O)N(C)C2=O)cc1 (stereo not drawn),0.39,-0.57
O=C(COc1ccc(Br)cc1)Nc1ccncc1,1.9,-0.05
NC(=O)c1nsc(C(=O)N(c2cccc(F)c2)C(C(=O)NCC2CCCO2)c2c[nH]c3ccccc23)c1N (stereo not drawn),1.4,0.36
O=C(N/N=C/c1ccc([N+](=O)[O-])o1)C(=O)Nc1ccc(C(=O)O)cc1,0.05,-1.6

Returning to the listing, repeating the five entries before the break.
SMILES	KCNQ2 enhance	KCNQ2 enhance baseline
CC(C)C(=O)NCc1cc(-c2ccc(Cl)cc2)no1	1.6	0.51
Cc1c(NC(=O)c2ccc(N(Cc3ccccc3)S(C)(=O)=O)cc2)c(=O)n(-c2ccccc2)n1C	0.08	-0.37
COC(=O)c1ccc(NC(=O)CSc2nc(=O)cc(N)n2-c2ccccc2)cc1	0.02	-0.85
COc1ccc(CCNCc2csc3nc4ccccc4n23)cc1OC	1.4	0.68
O=C(N/N=C/c1ccc([N+](=O)[O-])o1)C(=O)Nc1ccc(C(=O)O)cc1	0.05	-1.6
CCN1CCN(CC(=O)Nc2ccc(N(C)C)cc2)CC1	0.12	0.88
CCN(CC(=O)N1CCCCCC1)S(=O)(=O)c1ccc(C)cc1	0.3	0.23
Cc1ccc(N(C(=O)c2csnn2)C(C(=O)NC2CCCCC2)c2ccccn2)cc1 (stereo not drawn)	0.66	0.11
CC1CCN(CC(=O)Nc2ccccc2C#N)CC1	1.4	-1.2
CC(=C/c1ccco1)/C=N/NC(=O)CSc1nnc(SCc2ccc(C)cc2)s1	1.3	-0.11
O=C(NCCCO)C12CC3CC(CC(C3)C1)C2	1.6	0.73
COC(=O)c1ccc(-c2noc(CN3CCCC(CNC(C)=O)C3)n2)cc1 (stereo not drawn)	1.4	-1.7
CC(NS(=O)(=O)c1ccc(OCC(=O)N2CCOCC2)c(Cl)c1)c1ccccc1 (stereo not drawn)	1.7	-0.79
CCN1C(=NCCc2cccnc2)N[C@@H](c2ccccc2)C(C(=O)OC)=C1C	0.05	-0.02
O=C(NC1CCCCC1)C1CCCN1C(=O)NCc1ccccc1 (stereo not drawn)	0.12	-1.5
CC(=O)OC[C@H]1O[C@@H](n2ncc(=O)[nH]c2=O)[C@H](OC(C)=O)[C@@H]1OC(C)=O	0.09	0.24
O=C1c2ccccc2C(O)N1c1ccccc1 (stereo not drawn)	0.9	-2.6
COc1ccc(N2CCN(C(=O)CCNC(=O)c3ccccc3)CC2)cc1	1.7	-1.9
CN(C)CCCN(Cc1cc2cc3c(cc2[nH]c1=O)OCCO3)C(=O)NC1CCCCC1	2	0.24
COc1ccc(CC(=O)N/N=C/c2cccn2-c2ccc([N+](=O)[O-])cc2)cc1OC	0.01	-0.04
CCOC(=O)N1CCC(N2Cc3cccc(C(=O)Nc4cccc(F)c4)c3C2=O)CC1	0.92	-0.47
NC(=O)NC(=O)COC(=O)CCSc1ccccc1	0.5	0.04
CCN1CCN(C(=O)/C=C/c2ccc(F)cc2)CC1	0.1	2
CC1=C([N+](=O)[O-])C(c2ccc3c(c2)OCO3)N(C)C(=O)N1C (stereo not drawn)	2.9	-1.1
O=C(Cn1c(=O)n(CCC(=O)N2CCc3ccccc3C2)c(=O)c2ccccc21)NCC1CCCO1 (stereo not drawn)	0.59	-0.13
Cc1ccnc(NS(=O)(=O)c2ccc(NC(=O)Cc3ccc(Cl)cc3)cc2)n1	1.1	1.6
COc1ccc(OCC(=O)Nc2ccccc2Cl)cc1	0.18	-0.18
CS(=O)(=O)N1CCC(C(=O)Nc2ccccc2Sc2ccccc2)CC1	0.31	-0.65
Cc1cc(NC(=O)c2ccc(NC(=O)CC(C)C)cc2)no1	0.58	-0.84
O=C(Nc1cccnc1)c1cccc(S(=O)(=O)N2CCCC2)c1	0.5	-0.82
CNC(=O)c1c(O)c2cccc3c2n(c1=O)CC3	0.62	0.02
CCc1ccc(OCC(=O)Nc2ccc(CN3CCCCC3)cc2)cc1	0.02	0.13
Cc1ccc(C2(C)NC(=O)N(CC(=O)Nc3ccc(-c4nc5ccc(C)cc5s4)cc3)C2=O)cc1 (stereo not drawn)	0.66	1.2
CC1CN(CCn2cnc3c(N)ncnc32)CC(C)O1 (stereo not drawn)	0.58	1.3
Cn1c(=O)n(Cc2ccco2)c(=N)c2c3c(sc21)CCC3	2	2.6
COc1cccc(/C=C/C(=O)OCC(=O)Nc2cccc(S(=O)(=O)N3CCCCC3)c2)c1OC	0.78	1.1
C/C(=N\NC(=O)c1ccc(NS(=O)(=O)c2cccs2)cc1)c1ccc(C(C)(C)C)cc1	0.11	-3.5
COCc1cc(=O)[nH]c(Cc2c(Cl)cccc2Cl)n1	0.02	-0.9
COc1ccc(-c2ccc(-c3noc(-c4ccccc4)n3)c(OC)n2)cc1	0.13	-0.33
C/C(=N\Nc1ccc(S(N)(=O)=O)cc1[N+](=O)[O-])c1cccnc1	0.75	0.34
CCOC(=O)C(C)Sc1nnc(-c2ccccc2O)n1-c1ccc(C)cc1 (stereo not drawn)	0.29	0.28
CC(C)n1c(=O)n(CC(=O)NCC2CCCO2)c(=O)c2c3c(sc21)COC(C)(C)C3 (stereo not drawn)	0.11	0.31
Cc1ccc(N(C)C(=O)CN(C)S(=O)(=O)c2ccc3c(c2)n(C)c(=O)c(=O)n3C)cc1	0.16	1
O=C1Nc2ccc([N+](=O)[O-])cc2C1(O)N1CCCCC1 (stereo not drawn)	2.7	-1.6
O=C(O)CCCCCNc1ncnc2ccc(Br)cc12	0.74	-0.89
CN1/C(=C\C(=O)CSc2nnc(N)s2)C(C)(C)c2ccccc21	0.26	-1
NC(=O)C1(N2CCCCC2)CCN(c2nc(-c3ccc(Br)cc3)cs2)CC1	0.5	-0.2
CCOC(=O)c1c(-c2ccc(OC)cc2)csc1/N=C/C1C(=O)CCCC1=O	0.01	0.34
O=C(CSc1ccc2nnc(-c3cccnc3)n2n1)Nc1cccc(F)c1	0.06	0.01
COc1ccccc1CC(=O)Nc1cc(Cl)ccc1O	0.08	0.68
COc1ccc2cc(C(=O)COC(=O)COc3ccc4c(C)cc(=O)oc4c3)ccc2c1	0.65	0.22
CCCCNC(=O)COC(=O)c1ccc(N(C)C)cc1	0.75	-0.86
CC1CCC(NC(=O)c2ccc(/C=C3\Oc4ccccc4N(C)C3=O)cc2)CC1 (stereo not drawn)	0.15	-1.9
O=C(Nc1cnn(Cc2ccc(F)cc2)c1)c1cnccn1	0.6	-1.1
COc1ccc(C2=NN(C(=O)CCC(=O)O)C(c3cccs3)C2)cc1OC (stereo not drawn)	0.9	-0.87
O=C(COC(=O)c1cccs1)NCC1CCCCC1	1.3	1.1
COCCN(C(=S)Nc1c(C)cc(C)cc1C)C(C)c1cccnc1 (stereo not drawn)	1.3	0.04
Cc1ccc(S(=O)(=O)Nc2ccccc2C=Nc2cccc(C)c2C)cc1	3.6	-0.26
O=C(Nc1ccc(N2CCCCC2)cc1)c1ccc([N+](=O)[O-])o1	0.21	0.91
O=C1C2CCCN2C(c2ccccc2)N1c1ccc(F)cc1 (stereo not drawn)	0.04	-0.01
Cc1[nH]c2ccccc2c(=O)c1CN1CCCCC1	0.4	0.73
O=C(c1ccc(Cn2c(=O)[nH]c3ccccc3c2=O)cc1)N1CCN(c2ccccn2)CC1	1.2	0.58
CS(=O)(=O)N(CC(=O)N1CCN(Cc2ccccc2)CC1)c1ccc2c(c1)OCCO2	0.63	0
COc1ccc(NC(=O)Cc2c[nH]c3ccccc23)cc1S(=O)(=O)N1CCOCC1	1.3	1.9
CCCc1nc(NCC2CCCO2)c2nnn(Cc3ccccc3)c2n1 (stereo not drawn)	0.9	0.12

Next part:
SMILES	KCNQ2 enhance	KCNQ2 enhance baseline
Cc1cccc(NC(=S)NC(C)C(c2ccccc2)N2CCN(C)CC2)c1C (stereo not drawn)	0.05	1.2
O=C(O)COc1ccc(NC(=O)c2ccc3c(c2)C(=O)N(C2CCCCC2)C3=O)cc1	0.65	0.24
NC(=O)NCCC1=CCCCC1	2.6	-1.6
COc1cc(C(=O)NC(CCSC)C(=O)OCC(=O)NC(=O)C2CCCCC2)cc(OC)c1OC (stereo not drawn)	1.2	0.07
COc1ccc(NC(=O)CN(c2ccccc2C)S(C)(=O)=O)c(OC)c1	1.7	-0.25
O=C(Cc1ccc(F)cc1)N/N=C/c1ccc(-c2ccc(Cl)c(C(=O)O)c2)o1	1.1	0.36
Cc1ccoc1C(=O)Nc1ccc2ccccc2c1	19*	1.6*
COc1ccc(CCNC(=O)C(=O)Nc2ccc3nc4n(c(=O)c3c2)CCCCC4)cc1OC	0.25	0.67
CCOc1ccc(CCNC(=O)CSC(=S)N2CCCC2)cc1OCC	0.04	-0.23
O=C(CSc1nnnn1-c1ccc(F)cc1F)Nc1ccccc1F	1.4	0
CCOC(=O)c1[nH]c(COC(=O)CCCOc2ccccc2)c(C(=O)OCC)c1C	0.65	-1.4
Cn1nc(CC(=O)NCc2ccc(C(F)(F)F)cc2)c2ccccc2c1=O	0.24	1.5
COCC(=O)Nc1nnc(-c2ccc(C(C)(C)C)cc2)s1	1.3	-1.8
Cc1ccccc1NC(=O)COc1ccc2oc(=O)cc(C)c2c1	1.4	-0.01
COc1ccc([N+](=O)[O-])cc1N1C(=O)c2cccnc2C1=O	0.05	2.3
Cc1ccc(C(=O)Nc2ccccc2C(=O)NC(Cc2ccccc2)C(=O)O)cc1 (stereo not drawn)	0.43	0.27
CCN1CCN(C(CNS(=O)(=O)c2ccccc2)c2ccccc2)CC1 (stereo not drawn)	0.49	-0.1
O=C(O)CCCC(=O)NCCc1cccc(Cl)c1	0.57	0.01
Cc1ccc(NC(=O)N2C(=O)C3(OCCO3)c3ccccc32)cc1	0.16	0.14
O=C(O)COc1ccc(=O)n(-c2ccccc2)n1	1.3	-1.1

Filtered by structure: those above containing a cyano group (two)
SMILES	KCNQ2 enhance	KCNQ2 enhance baseline
N#CCCn1cc(C(N)=O)c(-c2cccs2)n1	1.3	0.47
CC1CCN(CC(=O)Nc2ccccc2C#N)CC1	1.4	-1.2

Next part
SMILES	KCNQ2 enhance	KCNQ2 enhance baseline
CCOC(=O)N1CCN(C(=O)C2CCCN(S(=O)(=O)c3ccc(C)cc3)C2)CC1 (stereo not drawn)	2.5	-0.7
CC(C)(C)C1CCC(C(=O)OCC(=O)Nc2ccc3[nH]c(=O)[nH]c3c2)CC1 (stereo not drawn)	0.72	-2.2
Cc1cccc2sc(N(CCCN3CCOCC3)C(=O)CS(=O)(=O)c3ccc(F)cc3)nc12	0.82	1.3
O=C(NCCSc1ncc(-c2ccccc2)[nH]1)c1ccco1	0.24	-0.84
Cn1cccc1-c1cc(C(=O)N/N=C/c2ccc(Cl)cc2)[nH]n1	0.02	-1.4
O=C(COc1nsnc1N1CCOCC1)Nc1ccccc1Cl	1.2	-1.4
Cc1cc(OCCNCCO)cc(C)c1Cl	0.59	0.38
Cc1cccnc1NC(=O)c1ccc(Cl)c(S(=O)(=O)N2CCCCCC2)c1	2.5	0.12
O=C(COC(=O)CCc1ccc(S(=O)(=O)N2CCOCC2)cc1)Nc1ncc(C(F)(F)F)cc1Cl	2	-1.4
CCC(C)c1ccc(NC(=O)c2cccnc2)cc1 (stereo not drawn)	1.6	1.8
CCC(C)Sc1ccc(-c2nc3cnccn3c2NC2CCCCC2)cc1 (stereo not drawn)	1.1	-0.98
